Yeast UUG start: modulators of yeast start codon fidelity, primary screen, whole organism, S. cerevisiae, single point, plate reader | AID 602363, 2012 | 350,000 tested, 0.13% active | activity score, % at 18.7 µM | S. cerevisiae UUG-firefly luciferase reporter, luminescence/redox ratio;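 active means replicate mean at a twofold rise or more, about +100% in these data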;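 further: firefly luciferase made from a UUG start codon reports start codon fidelity; reporter light over untreated wells divided by growth signal over untreated wells; some hits fall short of that in this replicate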
MT1-MMP act inh: blockers of MT1-MMP proenzyme processing, primary screen, HT1080 RFP-PRO-GFP cells, GFP/RFP fluorescence. Matrix metalloproteinase-14 (Homo sapiens), P50281. GFP/RFP ratio fluorescence, overnight; percent of plate control window, DMSO zero. GFP/RFP ratio change, % at 20 µM. 360,000 tested, 0.061% active. AID 651647, 2012;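 active means GFP/RFP ratio change of at least 30% with cell ATP level not reduced by more than half and red fluorescence within 50% of control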; further: strong numbers were not always called active
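Material: RFP-PRO-GFP reporter HT1080 cells. Dosing: single-point 20 µM compound, 1% DMSO. Controls: DMSO and RFP-L50D-GFP cell wells. Timing: cells overnight before dosing, compound overnight, 37 °C, 5% CO2. Measure: GFP/RFP fluorescence ratio.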
PABP FP inh: PABP poly(A) RNA binding inhibitors, primary screen, biochemical, fluorescence polarization, uHTS. Polyadenylate-binding protein 1 (Homo sapiens), P11940. inhibition, % at 35 µM. AID 2014, 2009. 290,000 tested, 1% active;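 active means 50% or more with normal probe brightness, or confirmed in later tests; about a fifth of its hits are not listed in these tables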;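 further: calls also rest on retests at 20 µM and on dose response follow-up; controls were probe without protein and protein plus probe with vehicle; some compounds called inactive have numbers as strong as hits; many hits fall short of the cut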
Target sequence (P11940 whole entry, looked up): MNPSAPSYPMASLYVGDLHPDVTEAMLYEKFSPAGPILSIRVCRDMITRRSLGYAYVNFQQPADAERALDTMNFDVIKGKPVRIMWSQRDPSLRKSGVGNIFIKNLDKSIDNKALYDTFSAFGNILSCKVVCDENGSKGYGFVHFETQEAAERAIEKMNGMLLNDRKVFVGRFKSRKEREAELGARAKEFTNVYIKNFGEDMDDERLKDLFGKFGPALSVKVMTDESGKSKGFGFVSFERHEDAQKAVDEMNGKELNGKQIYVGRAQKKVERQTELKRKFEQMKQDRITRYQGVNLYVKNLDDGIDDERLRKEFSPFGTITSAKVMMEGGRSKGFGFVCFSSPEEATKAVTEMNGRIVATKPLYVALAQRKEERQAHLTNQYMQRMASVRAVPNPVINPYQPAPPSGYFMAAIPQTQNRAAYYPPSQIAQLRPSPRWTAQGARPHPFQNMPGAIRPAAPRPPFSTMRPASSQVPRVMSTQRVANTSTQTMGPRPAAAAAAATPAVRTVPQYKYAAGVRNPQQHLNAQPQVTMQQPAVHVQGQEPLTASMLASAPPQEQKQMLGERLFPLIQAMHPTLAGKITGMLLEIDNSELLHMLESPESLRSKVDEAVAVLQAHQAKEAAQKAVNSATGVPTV
eIF4H inh: human eIF4H binding inhibitors, primary screen, translation initiation inhibitor project, biochemical, uHTS, fluorescence polarization; Eukaryotic translation initiation factor 4H (Homo sapiens), Q15056; eIF4H fluorescence polarization binding assay; inhibition, % at 35 µM; 290,000 tested, 0.94% active;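 active means 50% or more with normal probe brightness, or confirmed in later tests; about a fifth of its hits are not listed in these tables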;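 further: calls also rest on retests at 20 µM and on dose response follow-up; 0% = protein and probe with vehicle and 100% = probe without protein; strong numbers were not always called active; many hits fall short of the cut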
Rce1 inh: yeast Rce1p protease inhibitors, primary screen, biochemical, fluorescence, cell-free homogeneous; CAAX prenyl protease 2 (Saccharomyces cerevisiae (strain ATCC 204508 / S288c)), Q03530; calls only; 290,000 tested, 0.27% active; yeast membranes, quenched prenylated peptide cleavage fluorescence; AID 2563, 2010;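 active means fall in fluorescence gain of 50% or more versus controls, with final raw signal at or below 3038400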;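 further: plate controls were neutral control wells for no effect and wells lacking membranes for full effect; tested at 10 µM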
Target sequence (Q03530 whole entry, looked up): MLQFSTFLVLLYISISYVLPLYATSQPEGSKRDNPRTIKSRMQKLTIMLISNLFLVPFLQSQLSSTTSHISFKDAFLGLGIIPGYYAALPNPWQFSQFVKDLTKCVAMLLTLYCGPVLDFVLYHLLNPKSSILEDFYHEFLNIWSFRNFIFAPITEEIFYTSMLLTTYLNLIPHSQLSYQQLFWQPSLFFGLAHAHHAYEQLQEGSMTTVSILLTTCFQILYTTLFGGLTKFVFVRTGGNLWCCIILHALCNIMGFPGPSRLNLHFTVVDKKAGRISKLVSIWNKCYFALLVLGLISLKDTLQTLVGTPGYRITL
CSC inhib: cancer stem cell viability inhibitors, primary screen, luminescence. inhibition, % at 7.5 µM. cancer stem cell-like cells viability. 300,000 tested, 1.1% active;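 active means mean at 75% or more and at least half the replicates too; tested in HMLE shEcad cells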;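 further: 0% = median of negative and 100% = median of positive control wells; the first replicate is given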
Env fusion inh: inhibitors of HIV-1 Env-driven cell-cell fusion, primary screen, HeLa-JRFL effector, CEM21 target cells, luciferase. inhibition, % at 12.3 µM. 360,000 tested, 1.1% active. AID 651610, 2012;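 active means mean replicate inhibition score of at least 50 and every replicate individually at or above 50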;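 further: 0% = plate neutral controls and 100% = maraviroc near 300 nM; one replicate is shown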
eIF4H inh retest: second read-out of eIF4H inh, no call of its own (marks repeat the call); inhibition, %; compound at 20 µM; confirmation average;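 mean of two retest wells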
PABP FP inh retest: also measured in PABP FP inh; calls as there; inhibition, %; compound at 20 µM; confirmation repeats;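 mean of two retest wells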
MT1-MMP act inh RFP: also measured in MT1-MMP act inh; calls as there; RFP signal change, %; measured here: RFP expression control read;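 0 = vehicle wells; hits needed this value within 50% of zero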
Active calls of the source: *; i = inactive; . = not tested or not shown.

Start of the data: the first 5 compounds, ahead of the listing:
SMILES	Yeast UUG start	MT1-MMP act inh	MT1-MMP act inh RFP	PABP FP inh	eIF4H inh	Rce1 inh	CSC inhib	Env fusion inh	others
CCCS(=O)(=O)NC(=O)C1(C)CCCN(C(=O)c2nc3ccccc3s2)C1 (configuration not stated)	6	0	5	.	.	.	.	-2
CCC(C)(C)n1nnnc1C(c1cc(OC)ccc1OC)N1CCC(C(N)=O)CC1 (configuration not stated)	-4	0	-4	-3	3	i	-4	-70
Cc1csc(NC(=O)c2nc(-c3ccccc3)n(-c3ccccc3)n2)n1	-12	0	-2	2	-6	i	-2	-16
COC(=O)c1ccc(C2c3[nH]c4ccccc4c3C[C@H]3C(=O)N(C4CC4)CC(=O)N23)cc1 (some centres not stated)	.	-2	-6	-4	-5	i	-14	15
O=c1cc(CN2CCOCC2)nc(C2CC2)[nH]1	-21	0	-2	-6	-9	i	5	2

The whole of this part, from the first entry:
SMILES	Yeast UUG start	MT1-MMP act inh	MT1-MMP act inh RFP	PABP FP inh	eIF4H inh	Rce1 inh	CSC inhib	Env fusion inh	others
CCCS(=O)(=O)NC(=O)C1(C)CCCN(C(=O)c2nc3ccccc3s2)C1 (configuration not stated)	6	0	5	.	.	.	.	-2
CCC(C)(C)n1nnnc1C(c1cc(OC)ccc1OC)N1CCC(C(N)=O)CC1 (configuration not stated)	-4	0	-4	-3	3	i	-4	-70
Cc1csc(NC(=O)c2nc(-c3ccccc3)n(-c3ccccc3)n2)n1	-12	0	-2	2	-6	i	-2	-16
COC(=O)c1ccc(C2c3[nH]c4ccccc4c3C[C@H]3C(=O)N(C4CC4)CC(=O)N23)cc1 (some centres not stated)	.	-2	-6	-4	-5	i	-14	15
O=c1cc(CN2CCOCC2)nc(C2CC2)[nH]1	-21	0	-2	-6	-9	i	5	2
COc1ccc(NC(=S)NC2CCN(Cc3ccccc3)CC2)cc1OC	-20	1	1	10	-9	i	0	6
COc1cccc(NC(=O)c2cc([N+](=O)[O-])ccc2N2CCN(C)CC2)c1	.	-4	2	-9	2	i	8	-4
CC(=O)NCCc1cc2cc(C)c(C)cc2[nH]c1=O	.	5	1	5	1	i	-3	.
COc1ccc(C2=NN(c3nc(C(=O)O)cs3)C(O)(C(F)(F)F)C2)c(OC)c1 (configuration not stated)	5	-1	1	-8	14	i	9	-4
CCNc1nnc(SCC(=O)c2cc(C)n(C3CC3)c2C)s1	-2	0	3	.	.	.	.	3
CC(=O)NC(CC(=O)NC1CCCCC1)c1ccccc1 (configuration not stated)	-23	0	-1	-15	-12	i	-11	-16
O=C(NCc1ccc(Cl)cc1)c1ccc(CNc2c(N3CCCC3)c(=O)c2=O)cc1	.	2	-6	-4	3	i	.	-7
CCOC(=O)N1CCC(N2C(=O)c3ccccc3C2Nc2ccc3c(C)cc(=O)oc3c2)CC1 (configuration not stated)	10	0	6	13	0	i	-12	4
CCOC(=O)N1CCN(C(=O)COC(=O)CNC(=O)c2ccc(C)cc2)CC1	2	0	4	.	.	i	-12	17
CNC(=O)c1nnc(Cc2ccc(F)cc2)o1	-6	1	1	2	-6	i	-11	12
CCCn1cc(S(=O)(=O)CC(=O)Nc2ccc(OCC)cc2)c2ccccc21	2	2	1	1	9	.	-10	0
CCOC(=O)c1sc(NC(=O)CSc2ncn[nH]2)c(C#N)c1C	1	2	-3	5	-1	i	6	.
COc1ccc(NC(=S)N2CCc3cc(OC)c(OC)cc3C2)cc1	.	2	-1	-7	7	i	5	9
CCCCC(O)(CCCC)C(=O)NN(C(=O)OC)c1ccc(C)cc1	-19	0	-1	-3	-6	i	-10	-148
Cc1nc(C(=O)N2CCC(C)(C(=O)NS(=O)(=O)C3CC3)C2)c(C)o1 (configuration not stated)	-13	0	4	.	.	.	.	-2
Cc1cccc(S(=O)(=O)NC(=O)C2(C)CCN2C(=O)Cc2ccc(C(C)(C)C)cc2)c1 (configuration not stated)	-2	0	2	.	.	.	.	-31
CC(C(=O)Nc1ccccc1F)N1C(=O)c2ccccc2C1=O (configuration not stated)	.	8	7	3	1	i	-2	.
Cc1cccc2cc(CN(Cc3nnnn3C3CCCC3)C3CCCCC3)c(=O)[nH]c12	-10	-19	-9	.	.	.	6	.
O=C(NCCN1CCOCC1)c1cccs1	0	-3	10	-15	-6	i	1	.
COc1cc(S(=O)(=O)NCC2CCCO2)c(OC)cc1Cl (configuration not stated)	5	4	6	2	3	i	2	.
The list continues:
SMILES	Yeast UUG start	MT1-MMP act inh	MT1-MMP act inh RFP	PABP FP inh	eIF4H inh	Rce1 inh	CSC inhib	Env fusion inh	others
Cc1ccc(C)c(C(=O)CN2C3=NCCCN3c3ccccc32)c1	-13	1	-1	-2	-12	i	-3	39
O=C(CSc1nnc2ccccn12)Nc1ccccc1C(=O)O	.	8	7	1	-6	i	-9	-1
COc1ccccc1Oc1coc2c(CN(C)C)c(O)ccc2c1=O	-12	3	6	-1	-12	i	11	.
COc1ccc(OC)c(/C=N/NC(=O)c2ccc3nc[nH]c3c2)c1	.	-1	2	-4	-17	i	-15	17
Cc1nnc(SCc2ccc(C(=O)Nc3cc(Cl)ccc3C)cc2)s1	.	1	2	-2	-4	i	-14	-10
N#CCOc1ccccc1CNC[C@H]1O[C@@H](n2cnc(C(N)=O)n2)[C@H](O)[C@@H]1O	-12	-1	3	.	.	.	.	3
CCOc1ccc(N=C2C(=O)N(CN3CCOCC3)c3ccccc32)cc1	-5	-3	2	2	-16	i	-1	.
O=C(c1ccc2c(=O)n3c(nc2c1)CCC3)N1CCN(S(=O)(=O)c2cccc(F)c2)CC1	9	-2	1	.	.	i	-1	-5
O=C(O)c1cnn(-c2nc(-c3ccc(F)cc3)cs2)c1C(F)(F)F	.	2	2	-17	-14	i	-11	-18
Cc1ccc(C)c(NC(=O)NNC(=O)c2cc3occc3[nH]2)c1	-26	1	5	2	2	i	-2	0
NC1=NC(c2cn[nH]c2-c2cccc(F)c2)n2c(nc3ccccc32)N1 (configuration not stated)	.	2	3	4	5	i	1	5
COc1ccc(CC(=O)OCC(=O)c2ccc(OC)c(OC)c2)cc1	3	4	-1	.	.	.	-12	-3
CC(C)(C)c1ccc(C(=O)NCCC(=O)NC2=NCCS2)cc1	-13	2	-4	.	.	.	.	2
Cc1ccc(SCC(=O)OC(C)C(=O)NC2CCCCC2C)c(C)c1 (configuration not stated)	-21	3	8	.	.	.	12	.
COc1ccccc1CCNC(=O)c1cc(-c2ccncc2)nc2ccc(Br)cc12	-7	-2	-7	-6	-2	i	.	-1
CC(=O)N1CCN(C(=O)CCCNC(=O)c2ccc(Cl)cc2)CC1	-6	-1	3	16	3	i	3	27
N#Cc1nc(-c2ccco2)oc1N1CCCC1	.	2	-3	-8	3	i	-11	.
COc1ccc([C@@H]2CC=C(C(=O)O)[C@H](c3ccc(Cl)cc3)N2S(=O)(=O)c2ccccc2C)cc1	11	1	4	.	.	.	6	-25
Cc1cc(C(=O)COC(=O)c2ccc[nH]c2=O)c(C)n1-c1ccc(Br)cc1	.	-1	-7	-4	2	i	13	-41
COc1cc(OC)cc(OC(=O)c2cccc(S(=O)(=O)N3CCN(C)CC3)c2)c1	.	3	-7	.	.	i	-11	.
O=C(NC1CCSc2ccccc21)c1c(F)cccc1Cl (configuration not stated)	-8	-5	-3	-9	-7	i	-12	4
CCOC(=O)c1ccccc1NS(=O)(=O)c1ccc(S(=O)(=O)N2CCCC2)cc1	.	-4	-8	3	3	i	10	.
CCOc1ccc(NC(=O)C(C)NS(=O)(=O)c2ccc(NC(C)=O)cc2)cc1 (configuration not stated)	.	1	2	4	-4	i	19	-9
Cc1ccc(CN(CC(=O)NC2CCCCC2)C(=O)c2csnn2)cc1	-11	0	5	5	79	i	.	-3	eIF4H inh retest=-6;PABP FP inh retest=-6
Cc1c(C(=O)OCC(=O)N2CC(=O)Nc3ccccc32)oc2ccc(Br)cc12	-9	-6	2	6	-4	i	-11	.
(cont.)
SMILES	Yeast UUG start	MT1-MMP act inh	MT1-MMP act inh RFP	PABP FP inh	eIF4H inh	Rce1 inh	CSC inhib	Env fusion inh	others
OC[C@@H](O)[C@@H](O)[C@H](O)[C@H](O)CO	10	4	5	.	.	i	-8	36
CCCC(C)NC(=O)c1ccc2[nH]c3c(c2c1)CC(C)CC3 (configuration not stated)	.	-4	-5	7	4	.	-1	.
CCCCCc1nc2sc3c(c2c(=O)n1NC(=O)c1ccc([N+](=O)[O-])cc1)CC(C)(C)OC3	.	-18	-36	7	-8	i	.	6
CCCCS(=O)(=O)N1CCC(C(=O)Oc2ccc(Cl)cc2)CC1	-12	4	11	-1	-12	i	-7	7
O=C1CCCC(O)=C1N=Nc1ccc(C(=O)O)cc1	3	61	63	79*	102*	i	-7	-5
COc1cc2c(cc1OC)C(c1ccc(Br)cc1)NCC2 (configuration not stated)	-14	-2	0	.	.	i	-15	14
O=C(COC(=O)/C=C/c1ccc(Cl)cc1)Nc1ccccc1-c1ccccc1	.	5	4	-12	-4	i	-2	-11
Cc1ccc(NS(=O)(=O)c2ccc3c(c2)CC(=O)N3)cc1F	-1	-7	-5	.	.	.	.	1
CSc1cccc(NC(=O)c2cccc3cccnc23)c1	-5	-3	-2	4	-17	i	-9	-269
Cc1cc(=O)[nH]c(SCC(=O)Nc2ccc(Cl)cn2)n1	1	-2	-2	5	-7	i	6	.
C=CCn1c(SCC(=O)N2CCOCC2)nc2sc(C)c(C)c2c1=O	-4	-1	-2	-6	-6	i	.	8
CC(=O)N(/N=C1\Sc2ccccc2C1=O)c1ccccc1C	8	-23	26	1	10	i	13	.
CCOC(=O)c1[nH]c(C)c(C(=O)OC)c1C	.	4	2	-2	-8	i	-6	-2
CSc1ccccc1NC(=S)Nc1cccc(C(F)(F)F)c1	-15	5	3	18	2	i	0	-42
CCc1ccc(S(=O)(=O)c2n[nH]n3c2nc(=O)c2ccccc23)cc1	-20	0	2	-8	0	i	25	.
O=C(NN1CCCCC1)c1cnn2c(C(F)F)cc(-c3ccccc3)nc12	.	3	-5	-3	-1	i	-3	-4
COc1ccc(NC(=O)CCN2CC(C)OC(C)C2)c(OC)c1 (configuration not stated)	-2	3	1	-6	-6	i	0	.
O=C(Cc1ccccc1)NCC(=O)Nc1cc(Cl)ccc1Cl	-1	0	2	3	-13	i	.	17
Cc1[nH]c(C)c(S(=O)(=O)Nc2cccc(Cl)c2C)c1C(=O)N1CCCC1	-4	4	2	1	-17	i	2	19
O=C(CN1CCN(c2ccc(Cl)cc2)CC1)Nc1ccc(F)cc1	-16	6	0	12	10	i	1	9
COc1ccc(Cl)cc1C(=O)O/N=C(\N)c1ccc(Cl)cc1	0	-11	2	4	5	i	-7	-11
CCOC(=O)c1ccc(NC(=S)NC2CC(C)(C)NC(C)(C)C2)cc1	-21	-7	4	12	12	i	.	-257
COc1ccc(OCC(=O)Nc2ccc(N3CCN(C(=O)c4ccccc4C)CC3)cc2)cc1	10	5	-1	12	-8	i	2	20
CCc1cccc(C)c1N(C(=O)Cn1c(=O)[nH]c2ccccc21)C(C)COC (configuration not stated)	8	-1	-4	0	-7	i	-14	.
CCc1c(C)nc(SCC(=O)N2CCN(c3ccccc3OC)CC2)[nH]c1=O	.	2	6	-1	-5	i	-1	5
CCCCN(CC)CCCNC(=O)Cn1nc(Cc2cccnc2)c2ccccc2c1=O	.	-2	0	-7	-3	i	21	-71
O=C(CN1CCN(CCOCCO)CC1)N1c2ccccc2Sc2ccc(Cl)cc21	2	-3	-2	-4	-15	i	19	.

Screening data: PubChem, several laboratories

An excerpt; rates above refer to the full screens.
